PD-1 reverse act = reversal of PD-1 mediated T-cell inhibition; 29,000 tested, under 10 active; primary human CD4 T cells, PD-L1 beads, CellTiter-Glo 96 h; activation, % (no concentration beside the values);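 active = replicate mean of 50% or more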;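 note: 0% = median vehicle wells and 100% = positive control; 100 nL library stock added to about 50 µL; numbers are from one replicate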
Shh pathway inh = blocks Sonic Hedgehog signaling; Shh-LIGHT2 Gli-luciferase reporter, 30 h; inhibition, % (no concentration beside the values); 2.1% of 22,000 active;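 active = replicate mean of 65% or more; inconclusive = mean lower but half the replicates past it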;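 note: pathway switched on by Shh-conditioned medium diluted 1 in 25 in low serum; 100 nL library stock added to about 40 µL; 0% = median of neutral wells and 100% = positive control level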
YB-1 expression = YB-1 expression inhibition; U2OS, qRT-PCR YB-1 vs CDIP delta delta Cp, 16 h; stronger effect = higher value; zero = DMSO, each unit about twofold; AID 434959; delta delta Cp (YB-1 minus CDIP) (no concentration beside the values); 0.37% of 30,000 active;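 active = delta delta Cp rounded down to an integer at or above 3, about 3 SD of DMSO wells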;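 note: higher means less YB-1 transcript or more CDIP transcript relative to DMSO; stock transfer was 100 nL into about 100 µL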
MITF inh = blocks MITF activity | inhibition, % (concentration not given with the values) | TRPM1 promoter luciferase, luminescence, 24 h | 0.28% of 37,000 active;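 active = most replicates at 85% or more, or half of them and the mean; inconclusive = half reach 85% but not the mean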;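 note: human melanocyte line stably carrying TRPM1 promoter luciferase reporter; 0% = vehicle wells and 100% = a positive control; the first replicate is given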
Numbers without * were called inactive; ? = inconclusive; / = no result given. These rows are one share of the data, so the mix of outcomes need not match the whole.

SMILES	PD-1 reverse act	Shh pathway inh	YB-1 expression	MITF inh
COc1ccc(NC(=O)N(C)C[C@@H]2Oc3c(cccc3N(C)C)C(=O)N([C@@H](C)CO)C[C@H]2C)cc1	-0.9	-23.6	-0.33	-6.0
O=C(O)c1ccccc1C(=O)Nc1ccc(S(=O)(=O)Nc2nccs2)cc1	2.0	-68.4	0.0857	2.4
C[C@@H]1CN([C@@H](C)CO)C(=O)c2cccc(NC(=O)c3cnccn3)c2O[C@@H]1CN(C)S(=O)(=O)c1ccccc1	0.4	3.3	0.335	-4.3
C[C@H]1CN([C@@H](C)CO)C(=O)c2cc(NS(=O)(=O)c3cn(C)cn3)ccc2O[C@H]1CN(C)C(=O)Nc1ccc(F)cc1	0.4	-0.6	0.00273	-1.6
COc1ccc(NC(=O)Nc2ccc3c(c2)CC(=O)N([C@H](C)CO)C[C@@H](C)[C@H](CN(C)S(=O)(=O)c2ccc(Cl)cc2)O3)cc1	/	-4.4	-0.00149	-4.9
Cc1ccc(-n2c(SCC(=O)NC3CCCCC3)nnc2-c2ccccc2)cc1	-0.1	/	/	2.6
Cc1ccc(NC(=O)C2CC(=O)n3cnnc3N2)cc1 (stereo not given)	0.7	/	/	-8.5
C[C@@H]1CN([C@H](C)CO)C(=O)c2cc(NC(=O)Cn3cnnn3)ccc2O[C@@H]1CN(C)C(=O)Nc1ccc(F)cc1	-0.4	33.7	-0.108	-6.4
C[C@@H]1CN([C@H](C)CO)C(=O)c2cc(NS(=O)(=O)c3ccccc3)ccc2O[C@H]1CN(C)Cc1ccc(Oc2ccccc2)cc1	/	42.2	0.15	8.6
C[C@@H]1CN([C@@H](C)CO)C(=O)c2cc(NC(=O)Nc3ccc4c(c3)OCO4)ccc2O[C@H]1CN(C)Cc1ccc2c(c1)OCO2	0.1	23.4	0.16	-2.1
C[C@@H]1CN([C@@H](C)CO)C(=O)c2cc(NC(=O)Nc3ccccc3)ccc2O[C@@H]1CN(C)S(=O)(=O)c1ccc(Cl)cc1	0.9	-3.0	-0.0956	2.2
O=c1c2c(nc3cc(-c4ccco4)[nH]n13)CSC2	-0.5	-18.0	0.0373	-34.7
COc1ccc(NC(=O)N(C)C[C@H]2Oc3c(NC(=O)c4cnccn4)cccc3C(=O)N([C@H](C)CO)C[C@@H]2C)cc1	0.8	-50.9	-0.27	-5.4
Cc1noc(C)c1S(=O)(=O)Nc1ccc2c(c1)CC(=O)N([C@@H](C)CO)C[C@H](C)[C@@H](CN(C)C(=O)Nc1ccc(F)cc1)O2	0.0	/	0.0116	-4.7
COc1ccc(NC(=O)N(C)C[C@H]2Oc3c(NS(C)(=O)=O)cccc3C(=O)N([C@H](C)CO)C[C@H]2C)cc1	2.7	-7.8	0.0908	-0.1
C[n+]1c(-c2ccccc2)csc1NC1CCCCC1	1.5	-3.2	-0.00942	-24.9
COc1ccc(S(=O)(=O)N(C)C[C@H]2OCCCC[C@@H](C)Oc3ccc(NS(=O)(=O)c4c(C)noc4C)cc3C(=O)N([C@H](C)CO)C[C@@H]2C)cc1	0.0	17.0	-0.135	2.0
O=C(Oc1ccc(-c2ccccc2)cc1)C(Cc1ccccc1)N1C(=O)C2C3CCC(C3)C2C1=O (stereo not given)	-3.8	/	/	-19.1
C[C@H]1CN([C@@H](C)CO)C(=O)Cc2cc(NC(=O)c3ccncc3)ccc2O[C@@H]1CN(C)Cc1ccncc1	0.8	-1.6	0.169	-1.4
Cc1noc(C)c1NC(=O)Nc1ccc2c(c1)C(=O)N([C@H](C)CO)C[C@@H](C)[C@@H](CN(C)Cc1ccc(C(=O)Nc3ccccc3N)cc1)O2	1.6	/	-0.00308	-7.2
COC(=O)C1=C(C)NC(=O)C1(Nc1ccc(Cl)cn1)C(F)(F)F (stereo not given)	-0.7	/	/	0.5
C[C@@H]1CN([C@H](C)CO)C(=O)c2cccc(NC(=O)NC3CCCCC3)c2O[C@H]1CN(C)C(=O)NC1CCCCC1	2.1	-10.4	-0.116	17.4
C[C@H](CO)N1C[C@H](C)[C@@H](CN(C)S(C)(=O)=O)Oc2ccc(NC(=O)CCCN(C)C)cc2C1=O	/	-2.5	0.0459	-8.3
O=C1CSc2nnc(-c3ccccc3)n21	0.1	-42.8	0.671	9.6
CC(=O)/C(=C\c1ccccc1)CC(=O)O	/	-4.1	-0.192	11.9

Continued; it opens with the three that closed the last part.
SMILES	PD-1 reverse act	Shh pathway inh	YB-1 expression	MITF inh
C[C@H](CO)N1C[C@H](C)[C@@H](CN(C)S(C)(=O)=O)Oc2ccc(NC(=O)CCCN(C)C)cc2C1=O	/	-2.5	0.0459	-8.3
O=C1CSc2nnc(-c3ccccc3)n21	0.1	-42.8	0.671	9.6
CC(=O)/C(=C\c1ccccc1)CC(=O)O	/	-4.1	-0.192	11.9
Cc1cc(Cl)c(S(N)(=O)=O)cc1OCC(N)=O	1.4	/	/	-0.9
CSC1=N/C(=C\c2ccccc2C)C(=O)S1	3.2	-31.6	-0.22	-3.9
C[C@@H]1CCCCO[C@@H](CN(C)C(=O)c2ccccc2)[C@@H](C)CN([C@H](C)CO)C(=O)c2cc(NC(=O)Nc3cccc4ccccc34)ccc2O1	/	/	-0.172	20.4
CC(=O)/C=C/C1(O)C(C)CCC2C(C)(C)CCCC21C (stereo not given)	-1.1	-9.7	-0.398	-14.6
Cc1ccc(C(C)C)c(OCC(=O)Nc2ccc(C)cc2[N+](=O)[O-])c1	-1.1	/	/	-1.9
COc1ccc(NC(=O)N(C)C[C@H]2Oc3ccc(N(C)C)cc3CC(=O)N([C@@H](C)CO)C[C@@H]2C)cc1	0.1	62.9	0.0326	8.3
CNC[C@@H]1Oc2c(NS(=O)(=O)c3c(C)noc3C)cccc2C(=O)N([C@H](C)CO)C[C@@H]1C	-0.6	6.4	-0.383	-1.8
COc1ccc(NC(=O)CSc2nnc(-c3ccccc3)c(-c3ccccc3)n2)cc1	1.7	/	/	39.9
Cc1c(Cl)cccc1NC(=O)CN(c1ccccc1Br)S(C)(=O)=O	-1.6	/	/	-30.3
Cc1nonc1OCCNc1ccc(C(F)(F)F)cc1[N+](=O)[O-]	0.0	/	/	-45.4
COc1ccc(S(=O)(=O)Nc2ccc3c(c2)CC(=O)N([C@@H](C)CO)C[C@H](C)[C@@H](CN(C)Cc2ccc(C(=O)Nc4ccccc4N)cc2)O3)cc1	-1.0	/	-0.572	5.9
CCn1c(SCC(=O)Nc2cccc(C)c2C)nnc1-c1ccc(Cl)c(Cl)c1	-1.9	/	/	-4.4
Cc1noc(C)c1S(=O)(=O)Nc1ccc2c(c1)CC(=O)N([C@@H](C)CO)C[C@H](C)[C@H](CN(C)S(=O)(=O)c1ccc(F)cc1)O2	-2.2	22.5	-0.0716	-9.4
C[C@@H]1CN([C@@H](C)CO)C(=O)Cc2cc(NC(=O)c3ccncc3)ccc2O[C@@H]1CN(C)C(=O)NC1CCCCC1	0.3	-26.4	-0.0951	6.2
Cc1noc(C)c1NC(=O)Nc1ccc2c(c1)CC(=O)N([C@H](C)CO)C[C@H](C)[C@H](CN(C)C(=O)NC1CCCCC1)O2	/	18.6	-0.133	-4.6
Cc1noc(C)c1NC(=O)Nc1ccc2c(c1)CC(=O)N([C@H](C)CO)C[C@@H](C)[C@@H](CN(C)C)O2	3.3	-19.7	-0.334	-2.0
C[C@H]1CN([C@@H](C)CO)C(=O)c2cc(NS(=O)(=O)c3cn(C)cn3)ccc2O[C@H]1CN(C)CC1CC1	2.8	-27.8	0.36	-1.7
C[C@@H]1CN([C@@H](C)CO)C(=O)c2cc(NC(=O)c3ccncc3)ccc2O[C@H]1CN(C)Cc1ccccc1	-1.2	/	0.0475	-0.7
Cn1ccc(-c2cccc(NC(=O)Nc3ccccc3)c2)n1	0.4	-86.3	0.0112	-43.8
CC(=O)c1ccc(NC(=O)CN(C)S(=O)(=O)c2ccc(Br)cc2)cc1	-1.3	/	/	-43.9
C[C@H]1CN([C@@H](C)CO)C(=O)c2cc(NS(C)(=O)=O)ccc2O[C@@H]1CN(C)C(=O)Nc1cccc2ccccc12	0.6	/	-0.0723	-6.5
S=c1nc(-c2ccccc2)n(-c2ccc(Br)cc2)c2c1CCCC2	-1.3	/	-0.216	3.4
CNC[C@@H]1Oc2ccc(NC(=O)C3CC3)cc2C(=O)N([C@@H](C)CO)C[C@H]1C	-0.9	10.5	0.485	14.7
COc1ccc(OCC(=O)N2CCN(S(=O)(=O)c3ccc(OC)cc3)CC2)cc1	0.3	/	0.204	9.2
CCN(CC)CC(O)Cn1c2c(c3ccccc31)CCCC2=O (stereo not given)	3.2	/	/	-26.5

Next part:
SMILES	PD-1 reverse act	Shh pathway inh	YB-1 expression	MITF inh
COC(=O)c1c(NC(=S)NC(=O)CN2C(=O)c3ccccc3C2=O)sc2c1CCCC2	0.0	/	/	-32.7
CS(=O)(=O)N(CC(=O)O)c1ccc(Cl)cc1	1.4	/	/	7.6
C[C@@H]1CCCCO[C@H](CN(C)S(=O)(=O)c2ccc(Cl)cc2)[C@@H](C)CN([C@H](C)CO)C(=O)c2cc(NC(=O)Nc3ccc(C(F)(F)F)cc3)ccc2O1	-5.2	32.1	-0.0441	14.5
Cc1noc(C)c1NC(=O)N(C)C[C@H]1OCCCC[C@@H](C)Oc2ccc(NS(=O)(=O)c3ccccc3)cc2C(=O)N([C@H](C)CO)C[C@@H]1C	0.9	21.6	-0.00696	-2.5
C[C@@H]1CN([C@@H](C)CO)C(=O)c2cc(NC(=O)c3ccncc3)ccc2O[C@@H]1CN(C)C	-0.1	1.5	-0.627	1.6
C[C@@H]1CN([C@@H](C)CO)C(=O)c2cc(NC(=O)Nc3ccccc3)ccc2O[C@H]1CN(C)Cc1ccncc1	-0.8	/	0.197	4.2
C[C@H]1CN([C@@H](C)CO)C(=O)Cc2cc(NC(=O)Nc3ccc4c(c3)OCO4)ccc2O[C@@H]1CN(C)Cc1ccc(C(=O)Nc2ccccc2N)cc1	-0.2	/	0.535	-41.1
CCOc1cc(C)c(S(=O)(=O)NCCN2CCOCC2)cc1C	1.3	/	/	7.8
O=C(CSc1n[nH]c(-c2ccco2)n1)Nc1sc2c(c1C(=O)Nc1ccccc1)CCCC2	-0.6	/	/	14.6
Cn1cc(C(c2ccccn2)c2cn(C)c3ccccc23)c2ccccc21	0.9	/	/	56.1
C[C@H]1CN([C@@H](C)CO)C(=O)c2cc(NC(=O)Nc3ccc4c(c3)OCO4)ccc2O[C@H]1CN(C)Cc1ccc(Oc2ccccc2)cc1	/	/	-0.202	6.3
CC(C)NC(=O)Nc1cccc2c1O[C@H](CN(C)S(C)(=O)=O)[C@H](C)CN([C@@H](C)CO)C2=O	1.6	-19.0	-0.294	-0.2
C[C@@H]1CN([C@H](C)CO)C(=O)Cc2cc(NC(=O)Cc3cn(C)c4ccccc34)ccc2O[C@@H]1CN(C)S(=O)(=O)c1cccs1	1.8	12.8	0.102	14.0
COc1cc([C@H]2OC[C@](O)(Cc3ccc(O[C@@H]4O[C@H](CO)[C@@H](O)[C@H](O)[C@H]4O)c(OC)c3)[C@@H]2CO)ccc1O	0.0	5.8	0.347	5.9
COc1ccc(NC(=O)Nc2ccc3c(c2)CC(=O)N([C@H](C)CO)C[C@@H](C)[C@H](CN(C)S(=O)(=O)c2ccccc2)O3)cc1	0.9	-6.4	-0.0437	-0.5
COc1ccc(CN(C)C[C@H]2Oc3ccc(NC(=O)Cc4ccccc4)cc3CC(=O)N([C@@H](C)CO)C[C@@H]2C)cc1	0.6	/	0.288	-2.6
CC(C)CSc1nnc(CSCc2nc(-c3ccc(Cl)cc3)cs2)n1C	1.7	-19.2	0.176	49.0
COc1ccc(NC(=O)N(C)C[C@@H]2Oc3ccc(NC(=O)c4ccncc4)cc3CC(=O)N([C@@H](C)CO)C[C@@H]2C)cc1	0.2	/	-0.421	7.5
COc1ccc(-n2c(SCC(=O)Nc3cc(NC(C)=O)ccc3OC)nc3ccccc3c2=O)cc1	-2.1	/	/	-4.9
O=C(O)c1c(Br)c(Br)c(Br)c(Br)c1-c1c2ccc(=O)cc-2oc2cc(O)ccc12	-2.6	-5.6	0.0974	-1.5
C[C@@H]1CN([C@H](C)CO)C(=O)c2cccc(NC(=O)c3nc4ccccc4s3)c2O[C@@H]1CN(C)C(=O)NC1CCCCC1	/	26.1	0.282	11.3
COc1ccc(S(=O)(=O)N(C)CC(=O)Nc2ccccc2F)cc1Cl	1.5	/	/	-2.1
C[C@H](CO)N1C[C@H](C)[C@H](CN(C)C(=O)Nc2ccc(F)cc2)Oc2c(NS(=O)(=O)c3ccc(Cl)cc3)cccc2C1=O	-1.0	-64.2	-0.191	5.9
CNC[C@H]1Oc2ccc(NC(=O)CCC(F)(F)F)cc2C(=O)N([C@H](C)CO)C[C@@H]1C	0.1	-5.3	0.129	0.8
COc1ccc(NC(=O)N(C)C[C@@H]2OCCCC[C@@H](C)Oc3ccc(NC(=O)c4ccncc4)cc3C(=O)N([C@H](C)CO)C[C@@H]2C)cc1	0.3	-20.9	0.133	-9.2
Cc1cc(NC(=O)c2ccc(N)cc2)c(N)cc1N	5.4	?	0.0636	-32.5
